Compound activity as filed in PubChem BioAssay.
UUG fidelity = modulators of yeast start codon fidelity, primary screen, whole organism, S. cerevisiae, single point, plate reader; 0.13% of 350,000 active; AID 602363, 2012; activity score, % at 18.7 µM; S. cerevisiae UUG-firefly luciferase reporter, luminescence/redox ratio;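 active = replicate mean at a twofold rise or more, about +100% in these data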;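 note: firefly luciferase made from a UUG start codon reports start codon fidelity; reporter light over untreated wells divided by growth signal over untreated wells; some hits fall short of that in this replicate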
PABP polyA inh = PABP poly(A) RNA binding inhibitors, primary screen, biochemical, fluorescence polarization, uHTS; Polyadenylate-binding protein 1 (Homo sapiens), P11940; AID 2014, 2009; inhibition, % at 35 µM; 1% of 290,000 active;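 active = 50% or more with normal probe brightness, or confirmed in later tests; inconclusive = above 50% with abnormal brightness, or retests that disagree; inactive = below 50% or failed in later tests; about a fifth of its hits are not listed in these tables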;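 note: calls also rest on retests at 20 µM and on dose response follow-up; controls were probe without protein and protein plus probe with vehicle; some compounds called inactive have numbers as strong as hits; many hits fall short of the cut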
Target sequence (P11940 whole entry, looked up): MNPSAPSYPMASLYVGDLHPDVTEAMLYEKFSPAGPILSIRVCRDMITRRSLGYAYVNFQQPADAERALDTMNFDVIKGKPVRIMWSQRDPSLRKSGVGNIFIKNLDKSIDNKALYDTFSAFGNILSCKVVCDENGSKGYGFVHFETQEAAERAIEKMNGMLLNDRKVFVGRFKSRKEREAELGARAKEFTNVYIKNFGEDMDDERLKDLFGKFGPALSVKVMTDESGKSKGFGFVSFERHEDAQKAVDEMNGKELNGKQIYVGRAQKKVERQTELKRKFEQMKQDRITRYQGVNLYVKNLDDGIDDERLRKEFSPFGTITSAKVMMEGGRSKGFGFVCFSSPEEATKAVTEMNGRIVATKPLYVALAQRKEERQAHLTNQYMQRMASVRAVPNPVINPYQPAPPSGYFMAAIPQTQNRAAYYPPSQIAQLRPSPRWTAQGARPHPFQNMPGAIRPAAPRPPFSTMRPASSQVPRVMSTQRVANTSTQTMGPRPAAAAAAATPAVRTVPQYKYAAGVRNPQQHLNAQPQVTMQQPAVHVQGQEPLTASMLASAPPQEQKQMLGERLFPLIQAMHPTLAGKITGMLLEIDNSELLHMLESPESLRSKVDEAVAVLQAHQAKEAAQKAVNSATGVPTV
eIF4H FP inh = human eIF4H binding inhibitors, primary screen, translation initiation inhibitor project, biochemical, uHTS, fluorescence polarization. Eukaryotic translation initiation factor 4H (Homo sapiens), Q15056. eIF4H fluorescence polarization binding assay. inhibition, % at 35 µM. 0.94% of 290,000 active. AID 2012, 2009;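 active = 50% or more with normal probe brightness, or confirmed in later tests; inconclusive = above 50% with abnormal brightness, or retests that disagree; inactive = below 50% or failed in later tests; about a fifth of its hits are not listed in these tables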;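 note: calls also rest on retests at 20 µM and on dose response follow-up; 0% = protein and probe with vehicle and 100% = probe without protein; strong numbers were not always called active; many hits fall short of the cut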
Env fusion inh = inhibitors of HIV-1 Env-driven cell-cell fusion, primary screen, HeLa-JRFL effector, CEM21 target cells, luciferase; inhibition, % at 12.3 µM; AID 651610, 2012; 1.1% of 360,000 active;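 active = mean replicate inhibition score of at least 50 and every replicate individually at or above 50; inconclusive = only one of the two criteria met; inactive = mean below 50 and not all replicates reaching 50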;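 note: 0% = plate neutral controls and 100% = maraviroc near 300 nM; one replicate is shown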
Rce1 inh = yeast Rce1p protease inhibitors, primary screen, biochemical, fluorescence, cell-free homogeneous. 0.27% of 290,000 active. yeast membranes, quenched prenylated peptide cleavage fluorescence. calls only;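 active = fall in fluorescence gain of 50% or more versus controls, with final raw signal at or below 3038400; inconclusive = same 50% fall but final raw signal above 3038400; inactive = fall in fluorescence gain under 50%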;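 note: plate controls were neutral control wells for no effect and wells lacking membranes for full effect; tested at 10 µM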
MT1-MMP act inh = blockers of MT1-MMP proenzyme processing, primary screen, HT1080 RFP-PRO-GFP cells, GFP/RFP fluorescence. GFP/RFP ratio fluorescence, overnight; percent of plate control window, DMSO zero. GFP/RFP ratio change, % at 20 µM. 0.061% of 360,000 active. AID 651647, 2012;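 active = GFP/RFP ratio change of at least 30% with cell ATP level not reduced by more than half and red fluorescence within 50% of control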; note: strong numbers were not always called active
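Material – HT1080 RFP-PRO-GFP cells · Control set – DMSO wells and RFP-L50D-GFP cells · Incubation – overnight cell settling, then overnight compound exposure, 37 °C, 5% CO2 · Compound dosing – single-point 20 µM compound, 1% DMSO · Read-out – GFP/RFP fluorescence ratio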
CSC inhib = cancer stem cell viability inhibitors, primary screen, luminescence; cancer stem cell-like cells viability; inhibition, % at 7.5 µM; 1.1% of 300,000 active; AID 2717, 2010;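 active = mean at 75% or more and at least half the replicates too; inconclusive = mean and replicates disagree; tested in HMLE shEcad cells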;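 note: 0% = median of negative and 100% = median of positive control wells; the first replicate is given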
MT1-MMP act inh RFP = also measured in MT1-MMP act inh; calls as there; RFP signal change, %; measured here: RFP expression control read;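 0 = vehicle wells; hits needed this value within 50% of zero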
Numbers without * were called inactive; i = inactive; u = inconclusive; x = no result given; & = joins results of further samples.

SMILES	UUG fidelity	PABP polyA inh	eIF4H FP inh	Env fusion inh	Rce1 inh	MT1-MMP act inh	MT1-MMP act inh RFP	CSC inhib
Fc1ccc(NC(=S)N2CCSC2c2cccs2)cc1 (centres undefined)	x	-7	7	9	i	2	-1	8
CN(C)c1cccc(NC(=O)Cc2ccc(F)cc2)c1	7	2	-1	-6	i	2	0	24
O=C(c1ccc(F)cc1)N1CCN=C1c1ccccc1	-6	-4	-4	22	i	4	-1	-9
C=C(C)c1cccc(C(C)(C)NC(=O)Nc2nnc(C(C)C)s2)c1	-3	-2	-6	21	i	5	0	-14
CSc1nnc(C(C)(C)C)c(=O)n1/N=C/c1ccc(C(C)C)cc1	-11	-3	5	-2	i	5	3	19
Cc1ccc(CNc2nc3ccccc3n3cnnc23)cc1	-12	-2	-8	-1	i	1	2	13
CCC(=O)c1ccc(N2CCOCC2)c(F)c1	-9	x	x	x	i	3	1	x
Cc1ncsc1C(=O)N1CCCC(C(=O)c2ccc3ccccc3c2)C1 (centres undefined)	-12	-4	-1	2	i	1	-3	-7
Cc1cc(C)n2nc(C(=O)NCc3ccccc3)cc2n1	-13	5	4	x	i	1	1	-9
Cc1ccc(NC(=O)COC(=O)c2ccc(S(=O)(=O)NCc3ccco3)cc2)cc1	-12	x	x	1	x	1	1	x
COC(=O)[C@@H](NC(=O)c1ccc(OC2CCN(Cc3ccccn3)CC2)cc1)C(C)C	x	-7	3	7	i	1	5	-7
CCN(CC(=O)NC1CCCCC1)S(=O)(=O)c1ccc(Cl)cc1	-3	3	-2	x	i	3	-2	u
CCCCN1C(=O)/C(=C/C=C2\N(C)c3ccccc3C2(C)C)SC1=S	x	u	u	x	i	x	x	70
CCOc1ccc(/C=C2/SC(=S)N(n3c(C)ccc3C)C2=O)cc1	x	3	-9	-4	i	3	-1	16
N#CCCN(Cc1ccccc1)C(CCc1ccccc1)C(=O)NC1CCCCC1 (centres undefined)	-6	x	x	30	x	-10	-10	x
O=C(COc1ccc([N+](=O)[O-])cc1)Nc1ccc(C(=O)NCc2cccnc2)cc1	-14	-6	-5	16	i	11	-7	14
COc1cc(NC(=O)CCNC(=O)N2CC(=O)Nc3ccccc32)cc(OC)c1OC	-7	x	x	21	x	-3	3	x
N/C(Cc1cccc2ccccc12)=N\OC(=O)c1ccccc1F	-10	7	4	-75	i	4	5	-7
C1=CC2CC1CC2CN1CCN(Cc2ccccc2)CC1 (centres undefined)	-6	18	-4	x	i	7	4	61
Cc1ccc(C(NC(=O)c2cccc(S(=O)(=O)N3CCN(C)CC3)c2)c2ccccc2)cc1 (centres undefined)	-6	x	x	x	x	0	3	3
CCOc1cccc(/C=C(/C#N)c2nc3ccccc3[nH]2)c1OCC(=O)O	-5	14	13	-10	i	-3	-3	-3
CC(C)c1ccc2occ(-c3nn[nH]n3)c(=O)c2c1	x	4	5	4	i	3	1	4
Cc1nc2c(C(=O)NCc3ccccc3Cl)c[nH]n2c(=O)c1Cl	x	4	-2	x	i	-3	-1	1
COc1ccc(C(c2nnnn2Cc2cccs2)N2CCN(c3ccccc3F)CC2)cc1 (centres undefined)	1	5	-5	-161	x	-21	-10	10
CCN(CC)CCNC(=O)c1cn(CC)c2ccc(S(=O)(=O)N3CCc4ccccc4C3)cc2c1=O	-9	-3	-3	6	i	1	1	-9
CC(=O)Nc1c(S(=O)(=O)c2ccccc2)c2nc3ccccc3nc2n1Cc1ccccc1	4	1	-8	x	i	-2	2	-4
O=C(COC(=O)Cn1cnc2ccccc21)Nc1ccc(Br)cc1	-7	x	x	3	x	2	4	x
O=S1(=O)CC(N2CCC(Cc3ccccc3)CC2)CN1Cc1ccc(F)cc1 (centres undefined)	11	x	x	2	x	1	-6	x
O=C(CNC(=O)c1ccccc1F)OC1CCOC1=O (centres undefined)	18	x	x	x	x	0	-1	-11
CN(C)CCCNC(=O)c1ccc(Oc2ccccc2)cc1	x	-8	22	-2	i	0	3	54
Cc1ccc2occ(CN3CCN(Cc4ccccc4)CC3)c(=O)c2c1	x	14	0	x	i	x	x	-3
CC1=C(C#N)C(NC(=O)c2ccc(Cl)cc2)(C(F)(F)F)C(=O)N1 (centres undefined)	x	-7	9	x	i	1	-1	-4
COc1ccccc1NC(=S)N(Cc1ccc(C(=O)O)cc1)Cc1ccc(OC)c(OC)c1	-10	9	-8	-5	i	-1	1	-1
CC(C)N(C)Cc1nnnn1CC(=O)NCc1cc(F)cc(C(F)(F)F)c1	2	0	-9	13	i	1	1	4
Nc1cccc(S(=O)(=O)c2ccc(N)c(N)c2)c1	x	0	0	-14	i	3	2	-16
O=C(c1ccccc1F)N1CCCC(N2CCN(Cc3ccc4c(c3)OCO4)CC2)C1 (centres undefined)	-7	x	x	-5	x	-1	3	x
Cc1n(CC(=O)c2ccc(F)cc2)c2ccccc2[n+]1C	x	5	-8	-10	i	2	2	30
CCNC(=S)N/N=C/c1c(C)nn(-c2cccc(Cl)c2)c1Cl	x	-4	4	-54	i	7	0	-5
CS(=O)c1ccccc1-c1nc(-c2ccc([N+](=O)[O-])cc2)no1 (centres undefined)	12	x	x	37	x	-10	-10	x
COc1ccc(N2CCN(S(=O)(=O)c3cc4c(cc3C)N(C(C)=O)CCO4)CC2)cc1	12	-5	9	-11	i	-3	6	x
COc1ccc(Nc2nc3ccccc3nc2C)cc1	-13	62*	61*	x	i	-10	0	-4
O=[N+]([O-])c1ccccc1-n1cnc2ccccc21	x	9	-1	18	x	-3	-5	0
CCNC(=S)N/N=C(\C)c1ccco1	-21	-2	-2	2	i	-7	-1	-6
O=C(N1CCN(c2ccc(F)cc2)CC1)C12CC3CC(CC(C3)C1)C2	1	4	-9	-93	x	0	-2	5
CC[C@H](C)[C@@H](CN[C@H](C)CNC)NCCC(c1ccccc1)c1ccccc1	-11	4	4	-1	i	3	2	22
O=C(Nc1nc(-c2nc3ccccc3s2)cs1)C1CC1	-16	6	-13	-370	i	0	-3	0
OCCC1CN(Cc2cnn(-c3ccccc3Cl)c2)CCN1Cc1ccsc1 (centres undefined)	x	5	1	4	i	6	1	31
COc1cccc(-c2cnc3c(NC(C)=O)cc(-c4ccsc4)cn23)c1	-10	x	x	49	x	-7	-2	x
COc1ccc(S(=O)(=O)NCC2CCC(C(=O)NCc3ccc(F)cc3)CC2)cc1 (centres undefined)	-5	-3	-13	4	i	1	-3	5
CCN(CC)C(=O)C1CCC(C)(C(=O)O)C1(C)C (centres undefined)	-12	5	0	-52	i	4	2	15

New compounds follow
SMILES	UUG fidelity	PABP polyA inh	eIF4H FP inh	Env fusion inh	Rce1 inh	MT1-MMP act inh	MT1-MMP act inh RFP	CSC inhib
CCSc1nnc(NC(=O)c2nc(-c3ccccc3)n(-c3ccccc3)n2)s1	-14	0	2	x	i	-1	0	x
C[C@@H]1CN([C@H](C)CO)C(=O)CCCn2cc(nn2)CO[C@H]1CN(C)C(=O)NC1CCCCC1	-4&5	x	x	0	x	0	4	x
Cc1nc(NCCN2CCOCC2)c2nnn(Cc3ccccc3Cl)c2n1	-10	0	-10	12	i	-3	-11	-3
COCCSc1nnc(NC(=O)CS(=O)(=O)c2ccccc2)s1	-11	-2	-3	-8	i	3	3	-3
CSCCC(NS(=O)(=O)c1ccccc1)C(=O)Nc1nccs1 (centres undefined)	-15	x	x	10	x	-1	4	x
O=C(c1cccc(Br)c1)N1CCN(C(=O)N2CCOCC2)CC1	-18	-6	6	x	i	-2	-1	-2
CCC(=O)N1N=C(c2ccc(NS(=O)(=O)c3ccc(C)cc3)cc2)CC1c1ccco1 (centres undefined)	-6	x	x	17	x	-4	-13	38
CCn1c(-c2cc(-c3cc(OC)ccc3OC)nc3ccccc23)n[nH]c1=S	-16	20	-1	x	i	0	1	x
COc1ccc(CCNc2cc(C)nc3c(-c4ccccc4)c(C)nn23)cc1OC	9	-7	-15	-10	i	0	3	53
CCn1c(=O)c2[nH]c(Cl)nc2n(CC)c1=O	-17	x	x	19	x	8	0	x
CC(C)NC(=O)COCc1cc(-c2ccc3c(c2)OCO3)on1	-3	12	-2	-14	i	-4	2	-1
C/C(=N/NC(=O)c1ccc(Cl)s1)c1ccc(NC(=O)COc2ccc(Cl)cc2)cc1	25	1	-5	-1	i	1	4	-2
Cc1nnc(NCc2ccncc2)c2ccccc12	-22	-14	8	-303	i	-4	1	-2
Cc1ccc(-c2nn(CC(=O)NCc3ccccn3)c(=O)c3ccccc23)cc1S(=O)(=O)N(C)C	-31	2	5	21	i	0	-1	-5
O=C(COC(=O)Cc1ccc(Br)cc1)NCC1CCCO1 (centres undefined)	-11	x	x	-18	x	5	4	-13
O=C(O)CCCNc1ccc(S(=O)(=O)N2CCCCC2)cc1	x	5	-2	5	i	-1	4	4
Cc1ccc(S(=O)(=O)N(C)CC(=O)N(C)Cc2cccs2)cc1	-3	x	x	17	x	2	5	x
O=C(CCNS(=O)(=O)c1cccc2nonc12)NC1CCCCCC1	x	u	-1	-1	i	-1	3	-8
NS(=O)(=O)c1ccc(CCNC(=O)C(=O)c2c[nH]c3ccccc23)cc1	x	9	2	8	i	-2	1	3
Cc1cc(NC(=O)CSc2nnc(C(C)N(C)C)n2-c2ccc(F)cc2)no1 (centres undefined)	x	-5	-6	2	i	-1	-8	-13
CC1CCN(CCCNC(=O)C2CCC(CNS(=O)(=O)c3cccc4nsnc34)CC2)CC1 (centres undefined)	-13	-5	0	-9	i	0	2	x
COCCn1c(SCC(=O)Nc2cc(OC)ccc2OC)nc2c(c1=O)SC(C)C2 (centres undefined)	x	9	5	15	i	-1	-5	7
C=C(C)CNC(=S)N=Nc1c(O)[nH]c2ccc([N+](=O)[O-])cc12	x	0	20	2	i	9	-1	24
COc1ccc(S(=O)(=O)Nc2ccc(-c3ccc4nnc(C)n4n3)cc2)c(OC)c1	-9	x	x	x	x	7	10	16
CNc1ncc(C(=O)c2ccc(Cl)c(Cl)c2)s1	-21	0	-3	-338	i	8	3	-13
Cn1c(-[n+]2c(-c3ccccc3)cc(-c3ccccc3)cc2-c2ccccc2)nc2cc([N+](=O)[O-])ccc21	-15	15	-3	-10	i	-4	2	21
CC(C)(C)SC(=O)CC1NS(=O)(=O)OCC1NC(=O)OCC(Cl)(Cl)Cl (centres undefined)	15	-4	-10	63*	i	-1	-4	19
Cc1ccc(-c2nn(-c3ccccc3)cc2CO)o1	-22	-3	5	x	i	-1	-2	8
COc1cc(OC)c(C2C(C#N)=C(N)OC3=C2C(=O)CC(C)(C)C3)cc1OC (centres undefined)	1&-23	15	-8	x	i	1	3	x
O=C(NN1C(=O)C2C(C1=O)C1C=CC2C12CC2)c1ccccc1 (centres undefined)	x	42	-13	3	i	-4	1	-12
O=c1c2c([nH]c3ccccc13)CCCCCC2	-1	-4	-9	-17	i	-5	5	-4
COC(=O)C1=C(C)N(c2ccc(OC)c(OC)c2)C(=O)/C1=C\c1ccco1	x	11	3	14	i	2	2	-3
Cc1cc(CN2CCOCC2)c(O)c(C2(C)CCCCC2)c1	-2	-4	-5	x	i	-3	-3	67

The list is partial; count on the stated rates, not on these rows.
